Vaccinia stage – Vaccinia orthopox stage-specific inhibition; Vaccinia-infected cells, mCherry/Venus stage reporter fluorescence; hits give low values; some inactives read as strong as hits; activity change (mCherry), % (test concentration not listed); actives 0.01% (n = 89,000); AID 1053133;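 active = mCherry past -33% and 40 or more points under the early reporter, replicates agreeing; inconclusive = past -33% without that gap or agreement; tested in A549 cells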;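 note: scaled between vehicle wells and reference inhibitor wells; 23 nL library stock went into each well; one replicate is shown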
Vaccinia stage Venus – recorded beside Vaccinia stage, whose call it bears; activity change (Venus), %; measured here: Venus reporter, other viral stage;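 negative = less Venus signal; first of two replicates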
An asterisk follows results filed as active; ? = inconclusive; / = not tested or not shown; & = joins results of further samples.

smiles,Vaccinia stage,Vaccinia stage Venus
CC(C)NC(=O)N(C)C[C@H]1Oc2c(NC(=O)C3CCOCC3)cccc2C(=O)N([C@@H](C)CO)C[C@H]1C,11.4,11.5
Cc1noc(C)c1NC(=O)Nc1cccc2c1O[C@H](CN(C)Cc1ccc(-c3ccccc3)cc1)[C@H](C)CN([C@H](C)CO)C2=O,-8.0,-8.4
C[C@H]1CN([C@@H](C)CO)C(=O)Cc2cc(NC(=O)Nc3cccc4ccccc34)ccc2O[C@@H]1CN(C)S(=O)(=O)c1cn(C)cn1,24.9,18.5
CC(C)NC(=O)N(C)C[C@H]1Oc2cc(C#CC3CC3)ccc2S(=O)(=O)N([C@H](C)CO)C[C@H]1C,18.3,3.5
CN(C)CC(=O)N1[C@@H](C#N)[C@H](c2ccccc2-c2cccc(C(=O)N(C)C)c2)[C@@H]1CO,-2.8,-1.3
Cc1noc(C)c1S(=O)(=O)Nc1ccc2c(c1)C(=O)N([C@@H](C)CO)C[C@@H](C)[C@@H](CN(C)S(=O)(=O)c1ccc(F)cc1)OCCCC[C@@H](C)O2,?,/
O=C(C[C@H]1C=C[C@H](NC(=O)C2CC2)[C@@H](CO)O1)NCc1ccncc1,12.7,10.5
CN1C(=O)c2cc(NC(=O)c3cnccn3)ccc2OC[C@@H]2O[C@H](CC(=O)N[C@@H]3CCN(Cc4ccccc4)C3)CC[C@@H]21,6.4,-1.7
COc1cc(CN2CC3(CCN(C(=O)Nc4c(C)noc4C)CC3)c3c(n(C)c4cc(OC)ccc34)[C@@H]2CO)cc(OC)c1,13.0,-0.4
COCC(=O)N(C)C[C@H]1Oc2cc(C#CC(C)(C)O)ccc2S(=O)(=O)N([C@@H](C)CO)C[C@H]1C,15.1,9.0
C[C@H](CO)N1C[C@H](C)[C@H](CN(C)C(=O)Nc2ccc(C(F)(F)F)cc2)Oc2c(NS(=O)(=O)c3cccs3)cccc2C1=O,-7.1,-11.9
COc1ccc(NC(=O)N(C)C[C@H]2OCCCC[C@H](C)Oc3ccc(NC(=O)c4ccccc4)cc3C(=O)N([C@H](C)CO)C[C@@H]2C)cc1,-15.0,-19.5
COc1ccc(NC(=O)Nc2ccc3c(c2)[C@@H]2C[C@H](CC(=O)NCC4CC4)O[C@@H](CO)[C@@H]2O3)cc1,11.8,9.2
CC(=O)NC[C@@H]1[C@@H](c2ccc(-c3cccnc3)cc2)[C@@H](CO)N1C(=O)CC1CC1,14.4,15.4
O=C([C@@H]1[C@@H](CO)[C@@H]2Cn3c(ccc(C4=CCCCC4)c3=O)[C@H]1N2Cc1nccs1)N1CCCCC1,3.2,1.3
C[C@@H]1CN([C@H](C)CO)C(=O)c2cccc(NC(=O)Nc3ccccc3)c2O[C@@H]1CN(C)C(=O)Nc1ccccc1,-18.1,-7.8
C/C=C/c1ccc([C@@H]2[C@@H](CO)N(C(C)=O)[C@H]2CN(CC)C(=O)CN(C)C)cc1,15.7,15.0
O=C(C1=C[C@H](c2ccc(Br)cc2)C[C@H](OCc2ccc(CO)cc2)O1)N1CCN(Cc2ccccc2)CC1,17.0,9.7
Cn1cnc(S(=O)(=O)N2CCCCN3[C@@H](CO)[C@@H](c4ccc(-c5cccc(F)c5)cc4)[C@@H]3C2)c1,?,/
COCC(=O)N1CC2(C1)[C@H](c1ccccc1)[C@@H](CO)N2C(=O)c1ccncc1,-1.8,-5.9

Next part
smiles,Vaccinia stage,Vaccinia stage Venus
COc1ccc(S(=O)(=O)Nc2cccc3c2O[C@H](CN(C)CC2CCCCC2)[C@@H](C)CN([C@H](C)CO)C3=O)cc1,-0.2,4.5
CC(C)NC(=O)N(C)C[C@@H]1Oc2ccc(NC(=O)Nc3ccc(F)cc3)cc2C(=O)N([C@@H](C)CO)C[C@H]1C,11.3,10.2
CC(C)NC(=O)N1C[C@@H]2[C@H](c3ccccc31)[C@@H](CO)N2C(=O)c1ccc(F)cc1,-12.1,15.4
O=C(O)C[C@@H]1C[C@H]2c3cc(NC(=O)CC4CC4)ccc3O[C@H]2[C@@H](CO)O1,1.6,1.2
O=C(C[C@H]1CC[C@@H](NC(=O)c2cccc(F)c2)[C@H](CO)O1)NCCN1CCCC1,3.9,4.4
O=C(Cc1cccnc1)N1CC(=O)N2[C@H](C1)[C@@H](c1ccc(C#CC3CC3)cc1)[C@@H]2CO,-1.7,-2.2
C[C@@H]1CN([C@@H](C)CO)C(=O)c2cc(Br)cnc2O[C@H]1CN(C)Cc1ccc(-c2ccccc2)cc1,?,/
CN1C(=O)c2cc(NC(=O)c3ccccc3F)ccc2OC[C@@H]2O[C@H](CC(=O)NCc3ccc4c(c3)OCO4)CC[C@@H]21,-33.7,-18.9
C[C@@H]1CN([C@H](C)CO)C(=O)Cc2cc(NS(=O)(=O)c3cccs3)ccc2O[C@H]1CN(C)Cc1ccc(-c2ccccc2)cc1,-25.9,-19.8
CO[C@@H]1CN(C)C(=O)c2cc(NS(=O)(=O)c3ccccc3)ccc2OC[C@H](C)N(C(=O)NC(C)C)C[C@@H]1C,20.9,13.9
O=C(C[C@@H]1C=C[C@H](NC(=O)Nc2cc(F)ccc2F)[C@@H](CO)O1)NCc1ccccn1,-2.1,6.0
C[C@@H]1CN([C@H](C)CO)C(=O)c2cc(/C=C/c3ccccc3)cnc2O[C@@H]1CN(C)S(=O)(=O)c1cn(C)cn1,7.2,1.2
COc1ccc(S(=O)(=O)Nc2ccc3c(c2)C(=O)N([C@H](C)CO)C[C@@H](C)[C@H](CN(C)Cc2ccc(Oc4ccccc4)cc2)O3)cc1,-16.7,-17.9
C[C@@H]1CCCCO[C@@H](CN(C)C)[C@H](C)CN([C@H](C)CO)C(=O)c2cc(NC(=O)NC3CCCCC3)ccc2O1,0.3,0.5
C[C@@H]1CN([C@H](C)CO)C(=O)Cc2cc(NC(=O)Nc3cccc4ccccc34)ccc2O[C@@H]1CN(C)C(=O)Nc1cccc2ccccc12,19.2,10.4
COCC(=O)N(C)C[C@H]1Oc2cc(C#Cc3cccnc3)ccc2S(=O)(=O)N([C@H](C)CO)C[C@H]1C,10.6&1.3,3.1&9.4
N#C[C@H]1N[C@H](CO)[C@H]1c1ccc(C#CC2CCCC2)cc1,-4.9,-2.0
CN(C)C(=O)c1cccc(-c2ccc([C@@H]3[C@H](CO)N4C(=O)CN(C(=O)C5CCCC5)C[C@@H]34)cc2)c1,15.9,7.6
C[C@H]1CN([C@@H](C)CO)C(=O)c2cc(NC(=O)C3CC3)ccc2O[C@H]1CN(C)C(=O)Nc1ccccc1,6.8,5.8
CO[C@@H]1CN(C)C(=O)c2ccc(NC(C)=O)cc2OC[C@@H](C)N(C(=O)CC2CC2)C[C@H]1C,2.1,-6.6

Single entries from the list.
Entry for C[C@@H]1CN([C@H](C)CO)C(=O)Cc2cc(NC(=O)Nc3cccc4ccccc34)ccc2O[C@@H]1CN(C)C(=O)Nc1cccc2ccccc12 in Vaccinia stage Venus: 10.4
Entry for C[C@@H]1CN([C@H](C)CO)C(=O)c2cc(/C=C/c3ccccc3)cnc2O[C@@H]1CN(C)S(=O)(=O)c1cn(C)cn1 in Vaccinia stage: 7.2
Entry for COc1ccc(S(=O)(=O)Nc2ccc3c(c2)C(=O)N([C@H](C)CO)C[C@@H](C)[C@H](CN(C)Cc2ccc(Oc4ccccc4)cc2)O3)cc1 in Vaccinia stage: -16.7
Entry for CC(C)NC(=O)N1C[C@@H]2[C@H](c3ccccc31)[C@@H](CO)N2C(=O)c1ccc(F)cc1 in Vaccinia stage Venus: 15.4
Entry for O=C(Cc1cccnc1)N1CC(=O)N2[C@H](C1)[C@@H](c1ccc(C#CC3CC3)cc1)[C@@H]2CO in Vaccinia stage Venus: -2.2

Other results
smiles,Vaccinia stage,Vaccinia stage Venus
C[C@@H]1CN([C@@H](C)CO)C(=O)c2cc(NS(=O)(=O)c3cccs3)ccc2O[C@@H](C)CCCCO[C@H]1CN(C)C(=O)c1ccncc1,16.0,7.1
C[C@H](CO)N1C[C@H](C)[C@@H](CN(C)C(=O)Nc2ccccc2)Oc2ccc(NS(=O)(=O)c3ccc(F)cc3)cc2C1=O,13.2,2.1
C[C@@H]1CN([C@@H](C)CO)S(=O)(=O)c2ccc(C#C[C@@H](C)O)cc2O[C@@H]1CN(C)Cc1ccc(-c2ccccc2)cc1,?,/
C[C@H](CO)N1C[C@H](C)[C@@H](CN(C)Cc2ccncc2)Oc2ncc(C#Cc3ccccn3)cc2C1=O,27.3,25.6
Cc1noc(C)c1NC(=O)Nc1cccc2c1O[C@@H](CN(C)Cc1ccncc1)[C@H](C)CN([C@H](C)CO)C2=O,19.3,1.8
O=S(=O)(N[C@@H]1CC[C@H](CCn2cc(-c3cccc(F)c3)nn2)O[C@H]1CO)c1ccc(Cl)cc1,-26.1,-18.9
O=C(Cc1cccnc1)N[C@@H]1CC[C@@H](CCn2cc(Cc3ccccc3)nn2)O[C@H]1CO,14.1,18.3
CO[C@H]1CN(C)C(=O)c2ccc(NS(=O)(=O)c3ccc(C)cc3)cc2OC[C@@H](C)NC[C@@H]1C,-0.6,2.6
C[C@H]1CN([C@@H](C)CO)S(=O)(=O)c2ccc(C3=CCCC3)cc2O[C@@H]1CN(C)Cc1ccccn1,25.9,9.9
C[C@H](CO)N1C[C@H](C)[C@H](CN(C)C(=O)Nc2ccc(C(F)(F)F)cc2)Oc2ccc(NS(=O)(=O)c3ccc(F)cc3)cc2C1=O,5.1,9.2
C[C@H]1CN([C@@H](C)CO)C(=O)Cc2cc(NC(=O)CCN3CCOCC3)ccc2O[C@H]1CN(C)S(=O)(=O)c1cn(C)cn1,16.6,13.7
CC(C)CC#Cc1ccc([C@H]2[C@@H](CO)N3C(=O)CN(C(=O)Cc4ccccc4)C[C@@H]23)cc1,38.3,6.6
C[C@H](CO)N1C[C@H](C)[C@H](CN(C)Cc2ccc(C(F)(F)F)cc2)Oc2ccc(NC(=O)C3CC3)cc2C1=O,-9.6,2.3
Cc1ccc(S(=O)(=O)N2CC[C@H]3[C@H](CO)Nc4ccc(Br)cc4[C@H]32)cc1,-14.9,-8.2
O=C(C[C@H]1CC[C@@H](NC(=O)C2CC2)[C@@H](CO)O1)Nc1ccccc1,-7.3,-7.2
Cc1cc(C(=O)Nc2cccc3c2O[C@@H](CN(C)CC2CC2)[C@@H](C)CN([C@H](C)CO)C3=O)n(C)n1,3.1,18.7
C[C@H]1CN([C@@H](C)CO)C(=O)c2cc(NC(=O)Cc3ccccc3)ccc2O[C@H]1CN(C)C(=O)Nc1ccc(C(F)(F)F)cc1,-17.0,-13.4
C/C=C/c1ccc2c(c1)O[C@@H](CN(C)Cc1ccc(F)cc1)[C@@H](C)CN([C@@H](C)CO)S2(=O)=O,?,/
CC(C)N(C[C@@H]1N[C@H](CO)[C@@H]1c1ccccc1)C(=O)CN1CCOCC1,12.5,13.9
C[C@@H]1CN([C@@H](C)CO)C(=O)c2cccc(NC(=O)NC3CCCCC3)c2O[C@H]1CN(C)Cc1ccc2c(c1)OCO2,?,/

Later entries.
smiles,Vaccinia stage,Vaccinia stage Venus
COc1ccc(NC(=O)N(C)C[C@H]2Oc3c(NC(=O)c4ccncc4)cccc3C(=O)N([C@@H](C)CO)C[C@H]2C)cc1,8.6,11.2
C[C@@H]1CCCCO[C@H](CN(C)C(=O)c2ccccc2)[C@H](C)CN([C@H](C)CO)C(=O)c2cc(NC(=O)c3ccccc3)ccc2O1,-1.7,-4.9
CN(C)CC(=O)Nc1ccc2c(c1)[C@@H]1C[C@@H](CC(=O)NCc3ccc4c(c3)OCO4)O[C@H](CO)[C@@H]1O2,9.0,7.7
COc1cccc(S(=O)(=O)Nc2ccc3c(c2)[C@@H]2C[C@@H](CC(=O)NCc4ccccc4F)O[C@H](CO)[C@@H]2O3)c1,-13.3,-12.1
COc1cccc(C#Cc2ccc([C@@H]3[C@@H](CO)N4C(=O)CN(C(=O)Cc5ccccc5)C[C@H]34)cc2)c1,?,/
N#Cc1cccc(-c2ccc3c(c2)[C@H]2[C@H](CCN2S(=O)(=O)c2cccc(F)c2)[C@@H](CO)N3)c1,?,/
COc1ccc(NC(=O)N2CCCCN3[C@@H](CO)[C@H](c4ccc(-c5ccccc5F)cc4)[C@@H]3C2)cc1,?,/
C[C@H]1CN([C@@H](C)CO)C(=O)c2cccc(NC(=O)CCCCCC(=O)Nc3ccccc3N)c2O[C@H]1CN(C)S(C)(=O)=O,37.8,20.7
C[C@@H]1CN([C@H](C)CO)C(=O)c2c(c3ccccc3n2C)-c2ccccc2CO[C@H]1CN(C)S(=O)(=O)c1ccc(C(F)(F)F)cc1,-34.2,-25.8
C[C@H]1CN([C@@H](C)CO)C(=O)Cc2cc(NC(=O)CCN3CCOCC3)ccc2O[C@H]1CN(C)Cc1ccc(Cl)c(Cl)c1,-11.5,-10.4
C[C@H](CO)N1C[C@H](C)[C@H](CN(C)Cc2cccnc2)Oc2ncc(C#Cc3ccccn3)cc2C1=O,2.1,-2.9
CO[C@@H]1CN(C)C(=O)c2ccc(NS(=O)(=O)c3ccc(C)cc3)cc2OC[C@H](C)N(Cc2nccs2)C[C@@H]1C,-1.3,-4.3
COc1ccc(NC(=O)N(C)C[C@@H]2Oc3ccc(NS(=O)(=O)c4ccccc4)cc3CC(=O)N([C@@H](C)CO)C[C@@H]2C)cc1,-2.9,-3.8
C[C@H]1CN([C@@H](C)CO)C(=O)Cc2cc(N(C)C)ccc2O[C@H]1CN(C)C(=O)Nc1ccc(C(F)(F)F)cc1,3.8,4.7
C[C@@H]1CN([C@@H](C)CO)S(=O)(=O)c2ccc(-c3cncnc3)cc2O[C@H]1CN(C)Cc1cccnc1,4.5,1.1

Reprinted at random: three records from the list, in no set order.
smiles,Vaccinia stage,Vaccinia stage Venus
C[C@H]1CN([C@@H](C)CO)C(=O)c2cc(NC(=O)Cc3ccccc3)ccc2O[C@H]1CN(C)C(=O)Nc1ccc(C(F)(F)F)cc1,-17.0,-13.4
O=C(C[C@H]1CC[C@@H](NC(=O)C2CC2)[C@@H](CO)O1)Nc1ccccc1,-7.3,-7.2
C[C@@H]1CN([C@H](C)CO)C(=O)c2c(c3ccccc3n2C)-c2ccccc2CO[C@H]1CN(C)S(=O)(=O)c1ccc(C(F)(F)F)cc1,-34.2,-25.8

Screening results (PubChem BioAssay)

A portion of the library. The share of hits here may be higher or lower than overall.
